MT1-MMP promoter = inhibitors of MT1-MMP promoter transcription, cell-based, luciferase reporter, luminescence (AID 618); MT1-MMP promoter luciferase reporter cells, luminescence; calls from a first round at 10 µM; hits with a dose series show EC50 in µM; actives 0.62% (n = 87,000);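 active means over half of the reporter light lost at 10 µM or EC50 under 50 µM; inactive means the rest and hits that failed the dose series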;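 further: actives suppress MT1-MMP promoter-driven transcription so potencies describe inhibitors; HT1080 fibrosarcoma cells; overnight exposure; toxic or luciferase-blocking compounds were not removed from the actives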
WNV protease inh = inhibitors of WNV NS2B-NS3 protease, primary screen, biochemical, fluorogenic substrate; actives 0.18% (n = 65,000); fluorogenic substrate Ex360/Em465; stronger effect = lower value; z-score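 (tested at a level between 10 and 100 µM)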; AID 577, 2007; Genome polyprotein (West Nile virus), P06935;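 active means z-score at -3 or under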;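 further: score is relative to mean and spread of the compound wells of a plate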
Target sequence (P06935 1371-1501 limits assumed): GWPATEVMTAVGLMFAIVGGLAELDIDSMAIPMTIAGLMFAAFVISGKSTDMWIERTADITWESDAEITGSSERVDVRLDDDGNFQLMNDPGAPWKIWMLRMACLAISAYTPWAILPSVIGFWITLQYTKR
Target sequence (P06935 1502-1679 limits assumed): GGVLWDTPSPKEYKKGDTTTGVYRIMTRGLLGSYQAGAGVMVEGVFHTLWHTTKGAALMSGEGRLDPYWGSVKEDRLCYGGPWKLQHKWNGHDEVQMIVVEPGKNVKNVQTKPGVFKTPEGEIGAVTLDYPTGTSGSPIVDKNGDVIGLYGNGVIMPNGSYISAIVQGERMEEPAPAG
Hsc70 ATP site = Hsc70 inhibitors, probe displacement, primary screen, biochemical, fluorescence polarization (AID 568) | Heat shock cognate 71 kDa protein (Homo sapiens) | Hsc70 fluorescence polarization, probe displacement; higher % means a stronger effect; strong numbers were not always called active | displacement, % at 20 µM, or IC50 in µM where a hit was titrated | 83,000 tested, under 10 active;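 active means displacement above 50% without optical interference and an IC50 on retest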;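 further: ATPase domain with a fluorescein-tagged ATP probe; 0% = vehicle and 100% = excess ADP; read after one hour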
An asterisk follows results filed as active; i = inactive; · = no result given.

Values run as follows: MT1-MMP promoter, WNV protease inh, Hsc70 ATP site
- Cc1ccc(S(=O)(=O)NC(C(=O)OCC(=O)NC2CCS(=O)(=O)C2)C(C)C)cc1 (stereo unspecified)
  i, -0.46, 2.2%
- Cc1c(-c2ccc(F)cc2)nc(N)c(C#N)c1-c1ccco1
  i, -0.24, -13%
- Cc1c(C#N)c2ccccc2n1CC(=O)NCc1ccccc1
  i, ·, 2.4%
- Cc1c(NC(=O)c2cc(-c3ccccc3)on2)c(=O)n(-c2ccccc2)n1C
  i, -0.39, 5.9%
- O=C(CC1NC2CCCCC2NC1=O)Nc1cccc(C(F)(F)F)c1 (stereo unspecified)
  i, 0.16, 6.1%
- Cc1ccc(C(=O)Nc2ccc3nc(C)sc3c2)s1
  i, ·, 1.7%
- Cc1ccc2c(nc3s/c(=C/c4cccs4)c(=O)n32)c1C
  i, -0.07, -20%
- O=C(CN(Cc1ccco1)C(=O)CNS(=O)(=O)c1ccccc1)NCc1ccc(F)cc1
  i, -0.68, 2.2%
- c1ccc(CN2CCN(c3ncnc4nc[nH]c34)CC2)cc1
  i, 0.62, 1.6%
- Cc1cc(=O)oc2cc(OCC(=O)OCC(=O)NCc3ccc4c(c3)OCO4)ccc12
  i, 0.59, -3.2%
- CC(=O)C1=C(C)Nc2cc(C(F)(F)F)ccc2S1
  i, -0.73, 3.5%
- O=C(NCCOc1ccc(Cl)cc1)C1CC(=O)N(c2ccc(F)cc2)C1 (stereo unspecified)
  i, -0.6, -13%
- CCOc1ccc(NC(=O)c2cnsn2)cc1
  8.8µM*, 1.3, 2.9%
- Cn1cccc1C(=O)Nc1nccs1
  i, -1.4, -3.1%
- Cc1ccc(CC(=O)Nc2nc3ccccc3[nH]2)cc1C
  i, ·, -4.0%
- CCOC(=O)c1cn(CC)c2ccc(Br)cc2c1=O
  i, 0.37, -0.7%
- Cc1ccc2c(c1)N(CCCC(=O)NCc1cccnc1)C(=O)CO2
  i, 0.81, -1.9%
- Cc1ccc2cc(CCNC(=O)C(C)(C)C)c(=O)[nH]c2c1
  i, 0.02, 1.8%
- O=C(NC1CCCCC1)N1CCC(c2nc(-c3ccc(S(=O)(=O)N4CCCC4)cc3)no2)CC1
  i, -0.05, 1.3%
- COC(=O)c1ccccc1NC(=O)c1ccc2c(c1)C(=O)N(Cc1ccco1)C2=O
  i, -0.15, 2.2%
- CC1CCN(C(=O)CSc2nnc(CN3CCOCC3)n2-c2ccccc2)CC1
  i, 0.83, 1.8%
- O=S(=O)(c1ccccc1)N1CCN(c2cc(-c3ccccc3)nc3ncnn23)CC1
  i, -0.66, -4.9%
- CCSC1=C(C#N)C2(CCCC2)C(C#N)=C(N)N1
  i, -0.06, -5.1%
- O=C(Nc1ccc2c(c1)OCO2)C1CCCN(S(=O)(=O)c2cccs2)C1 (stereo unspecified)
  i, -0.43, -10%
- COC(=O)c1ccccc1NS(=O)(=O)c1ccc2c3c(cccc13)C(=O)N2
  i, -1.5, -1.6%
- Cc1ccc(-c2nnn(CC(=O)NC3CCCc4ccccc43)n2)cc1 (stereo unspecified)
  i, ·, 1.3%
- COC(=O)c1ccc(NC(=O)CSc2nnc(C)n2-c2ccccc2)cc1
  i, -0.5, 2.4%
- CCN1C(=O)CS/C1=C(\C#N)S(=O)(=O)c1ccccc1
  i, -0.69, -36%
- CC1=CC(C)(C)N(C(=O)CSc2nnc(-c3ccc(C)cc3)o2)c2ccc(C)cc21
  i, ·, 5.5%
- N#CCSc1nc2c(c(C3CC=CCC3)c1C#N)CCC2 (stereo unspecified)
  i, 0.08, -2.6%
- CCOC(=O)N1CCN(C(=O)c2cn(C)c3ccc(S(=O)(=O)N4CCCC4)cc3c2=O)CC1
  i, -0.43, -6.3%
- COc1ccc(NC(=O)C2(N(CC(C)C)C(=O)Cn3nnnc3N)CCCCC2)cc1
  i, -1.2, -0.1%
- Cc1cc(C)c(O)c(-c2cc(C(=O)NCc3ccccc3)[nH]n2)c1
  i, ·, -2.1%
- CCOC(=O)CCCOC(=O)c1ccc(S(=O)(=O)N(C)C)cc1
  i, -1.2, 6.8%
- COc1ccc(OC)c(S(=O)(=O)n2nnc3cc(Cl)ccc32)c1
  i, -1.2, -6.2%
- COc1ccc(-n2c(SCC(=O)Nc3ccc(C(=O)O)cc3)nnc2-c2cccs2)cc1
  i, -0.03, 2.2%
- O=C(NS(=O)(=O)c1ccccc1Cl)c1ccc[nH]1
  i, -1.1, -4.4%
- Cn1c(N2CCN(C(=O)NCc3ccccc3)CC2)nc2ccccc21
  i, -0.22, -2.1%
- Cc1ccc(-c2noc(COc3ccc4c(c3)OCO4)n2)cc1
  i, ·, 4.4%
- Cc1nnc(SCc2cc(=O)[nH]c(N3CCCCC3)n2)s1
  i, 0.87, 4.1%
- Cc1cccc(N/C(N)=N/c2nc3c(c(=O)[nH]2)CCCC3)c1
  i, -0.95, 2.4%
- N#Cc1ccccc1CSc1nc2ncc(Br)cc2[nH]1
  i, -0.2, -2.6%
- COc1ccc(C(c2nnnn2CCc2ccccc2)N2CCN(C3CCCC3)CC2)cc1 (stereo unspecified)
  i, -0.51, -7.7%
- COc1ccc(C2C(C#N)=C(N)OC3=C2C(=O)CC(C)(C)C3)c(OC)c1OC (stereo unspecified)
  i, -0.51, 2.2%
- FC(F)(F)c1ccc(N2CCOCC2)c(Nc2nc3ccccc3n3cnnc23)c1
  i, -1.9, -7.2%
- CCCOc1ccc(/C(O)=C2/C(=O)C(=O)N(CCN(CC)CC)C2c2ccncc2)cc1 (stereo unspecified)
  i, -0.9, 0.2%
- O=C(COc1ccccc1)NNC(=S)NC(=O)c1ccc(Cl)cc1Cl
  i, ·, 1.7%
- CC1(C)CC(=O)C=C(NCCc2ccc(S(N)(=O)=O)cc2)C1
  i, -0.49, -1.9%
- COc1ccc(C(C)=O)c2c1OCCO2
  i, -0.45, 4.3%
- COc1cccc(C(=O)Nc2ccc(C)cc2)c1
  i, -0.58, 1.8%
- CCN(CC)S(=O)(=O)c1cccc(C(=O)Nc2nc3cc4c(cc3s2)OCCO4)c1
  i, -1.4, -2.2%
- Cn1c(=O)n(Cc2ccccc2F)c2ccccc21
  i, 0.64, 4.9%
- N/C(CC(=O)Nc1cccc(C(F)(F)F)c1)=N/O
  i, -0.0084, 4.7%
- CCCNC(=O)CS(=O)Cc1nc(-c2ccc(OC)cc2)oc1C (stereo unspecified)
  i, -0.17, 2.0%
- Cc1ccc(C(=O)N2CCC(C(=O)NCc3cccnc3)CC2)cc1
  i, ·, 0.7%
- CCc1nc(NCCCn2ccnc2)c2oc3ccccc3c2n1
  i, 0.43, -8.9%
- CCOC(=O)/C(C#N)=C1\Nc2ccccc2N=C1N(CC(C)C)CC(C)C
  i, 0.18, -3.8%
- CCOc1ccccc1Nc1nc(N)nc(CN(C)C2CCCCC2)n1
  i, 1.1, 0.8%
- Cc1ccc(-c2csc(NC(=O)c3cccs3)n2)cc1
  i, ·, -0.2%
- CC1=C(C(=O)Nc2cccc(C)n2)C(c2ccc3c(c2)OCO3)C2=C(CC(c3ccco3)CC2=O)N1 (stereo unspecified)
  i, 0.65, -0.9%

(continued)
Values run as follows: MT1-MMP promoter, WNV protease inh, Hsc70 ATP site
- O=C(c1ccco1)N(Cc1cc2ccccc2[nH]c1=O)C1CCCCC1
  i, 1.7, 4.9%
- CCOCCOC(=O)C1=C(C)Nc2ccc(C)cc2S1
  i, -0.55, -7.1%
- CCC(c1nnnn1C1CCCCC1)N(Cc1ccco1)Cc1cc2ccc(OC)cc2[nH]c1=O (stereo unspecified)
  i, 0.41, -0.1%
- Cc1cc(C)cc(Nc2cc(=O)n(C3CCCCC3)c(=O)[nH]2)c1
  i, 0.89, 3.9%
- O=C(CCn1c(=O)c2ccccc2n(CC(=O)NCCC2=CCCCC2)c1=O)NCc1ccco1
  i, -0.44, -4.3%
- O=C(NCc1ccco1)c1noc2c1CCCCC2
  i, 0.67, 2.3%
- Cn1nnnc1SCC(=O)NC(=O)NCc1ccccc1
  i, -0.1, 2.8%
- CCOC(=O)N1CCC(NC(=O)c2csc3c2CCCC3)CC1
  i, 0.27, 0.7%
- Cc1ccccc1Cn1cc(NC(=O)c2noc3c2CC(C(C)(C)C)CC3)cn1 (stereo unspecified)
  i, 1.3, 1.2%
- Cc1ccccc1Cn1nc(C)c(NC(=O)c2noc3c2CCc2ccccc2-3)c1C
  i, -0.2, 1.1%
- CSc1ccc2nnc(-c3cccc(F)c3)n2n1
  i, 0.43, 0.0%
- CCCCOC(=O)CSc1nc(N)c(C#N)c(-c2ccc(OC)cc2)c1C#N
  i, -0.08, 3.0%
- CCCCn1c(=O)c2ccccc2c2ccccc2c1=O
  i, -0.94, 3.6%
- Cc1c2c([n+]3n1CCC3)CC(C)(C)CC2=O
  i, 0.49, 7.7%
- CCOC(=O)COc1ccc(S(=O)(=O)N2CCc3ccccc3C2)cc1
  i, -0.82, -1.8%
- CC/C(=N\O)c1ccc(OC)c(OC)c1
  i, -0.58, 4.7%
- Cn1c(=O)c(C(=O)CN2CCCc3ccccc32)c(N)n(Cc2ccccc2)c1=O
  i, 0.84, -1.9%
- CCC(c1nnnn1Cc1ccco1)N(Cc1cc2cc(OC)ccc2[nH]c1=O)C1CCCCC1 (stereo unspecified)
  i, 0.62, -5.5%
- Cc1noc(C)c1S(=O)(=O)Nc1ccc(C(=O)NCCc2ccccc2)cc1
  i, -1.2, -7.8%
- COC(=O)C1=C(N)Oc2cc(C)n(C)c(=O)c2C1c1ccc(Cl)cc1 (stereo unspecified)
  i, 0.24, -4.2%
- CCn1c(CNC(=O)c2ccccc2)nnc1SCC(=O)N1CCN(c2ccccc2)CC1
  i, ·, 3.2%
- O=C(COc1cc(=O)n2c(n1)SCCC2)c1ccccc1
  i, -0.24, -7.6%
- NS(=O)(=O)c1ccc(NC(=O)c2ccccc2Cl)cc1
  i, ·, 0.6%
- N#Cc1c2n(c3c(=O)n(Cc4ccccc4Cl)cnc13)CCCCC2
  i, 0.1, -3.8%
- COc1ccc(-c2nnc3c4ccccc4c(C)nn23)cc1S(=O)(=O)N1CCN(CCO)CC1
  i, -0.98, 4.1%
- COC(=O)c1ccccc1NC(=O)c1cc(-c2cccs2)on1
  i, -0.32, -3.3%
- O=C(CSc1ncn[nH]1)NCCC(c1ccccc1)c1ccccc1
  i, ·, -0.3%
- COc1cc(/C=C/C(=O)c2c(O)cc(C)oc2=O)cc(OC)c1O
  i, ·, -1.4%
- O=C(CSc1ccc2nnc(-c3cccc(F)c3)n2n1)NCc1ccco1
  i, -0.14, 1.0%
- CCOC(=O)C1=C(C)NC(=O)NC1/C=C/c1ccccc1 (stereo unspecified)
  i, -0.45, -0.7%
- CC(C)(CNS(=O)(=O)c1ccc(F)cc1)CNS(=O)(=O)c1ccc(F)cc1
  i, -0.7, 3.9%
- O=C1NN(c2ccc(Cl)c(Cl)c2)C(=O)/C1=C/c1cccc(OC(=O)c2cccs2)c1
  i, ·, 1.3%
- CC(C)(C)S(=O)(=O)c1ccc2nc3c(n2c1)CCCC3
  i, 0.41, -1.8%
- N#Cc1nc(COc2ccc(Cl)cc2)oc1N1CCN(Cc2ccccc2)CC1
  i, -0.13, -2.6%
- O=C(c1ccc2c(c1)OCO2)[C@@H]1[C@@H]2C(=O)N(C3CCCCC3)C(=O)[C@@H]2C2c3ccccc3C=CN21 (stereo partly specified)
  i, -0.24, -2.5%
- Cc1cccc(C)c1NC(=O)CSc1nnc(Cc2ccccc2)o1
  i, ·, 2.7%
- CCNC(=O)CC1SC(=Nc2cccc(Cl)c2C)N(C)C1=O (stereo unspecified)
  i, 0.6, 5.7%
- CCc1cccc(NC(=O)c2ccc(NS(=O)(=O)c3c(C)noc3C)cc2)c1
  i, 0.59, -2.0%
- C=CCNC(=O)CCCCCNS(=O)(=O)c1ccc(OC)cc1
  i, -0.16, -0.2%
- COCCCn1c2nc3ccccc3nc2c2c(=O)n(Cc3cccs3)cnc21
  i, ·, 0.2%
- CCC1(C)Cc2c(C#N)c(N)n(N)c(=S)c2CO1 (stereo unspecified)
  i, 0.35, -2.5%
- CCOC(=O)c1cc(NC(=O)N2CCCc3ccccc32)c(C)nc1C
  i, 0.28, -2.9%
- CC(C)Oc1c(Cl)cc(CNC(C)(C)CO)cc1Cl
  i, -1.3, 6.4%

5 entries already listed, ordered by length of the SMILES, highest first.
Values run as follows: MT1-MMP promoter, WNV protease inh, Hsc70 ATP site
- COc1ccc(-c2nnc3c4ccccc4c(C)nn23)cc1S(=O)(=O)N1CCN(CCO)CC1
  i, -0.98, 4.1%
- N#Cc1nc(COc2ccc(Cl)cc2)oc1N1CCN(Cc2ccccc2)CC1
  i, -0.13, -2.6%
- O=C(CSc1ccc2nnc(-c3cccc(F)c3)n2n1)NCc1ccco1
  i, -0.14, 1.0%
- NS(=O)(=O)c1ccc(NC(=O)c2ccccc2Cl)cc1
  i, ·, 0.6%
- CC(C)Oc1c(Cl)cc(CNC(C)(C)CO)cc1Cl
  i, -1.3, 6.4%

Screening data deposited in PubChem BioAssay by several laboratories.
